Bioassay records as filed in PubChem.
RGS16-Gao HTS: RGS16-Galphao interaction regulator (human); binding response (% of control), % at 10 µM; O15492+P09471; AID 1441; 220,000 compounds, 0.38% hits; bead-based flow cytometry RGS16-Galphao binding, fluorescence; actives lie on both sides;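 active means below 25% or above 175%, edge rows of some plates excepted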;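 further: Galphao activated by GDP with aluminum fluoride before binding; 100% = wells without compound and 0% = beads without RGS; some results beyond the cut were filed as inactive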
Target sequence (O15492 whole entry, looked up): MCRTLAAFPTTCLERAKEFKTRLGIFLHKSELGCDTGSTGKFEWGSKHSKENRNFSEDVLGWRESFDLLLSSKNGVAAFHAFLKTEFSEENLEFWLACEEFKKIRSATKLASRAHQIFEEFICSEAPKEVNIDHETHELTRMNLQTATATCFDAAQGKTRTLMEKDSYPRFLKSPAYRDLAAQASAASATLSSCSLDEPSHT
Target sequence (P09471 whole entry, looked up): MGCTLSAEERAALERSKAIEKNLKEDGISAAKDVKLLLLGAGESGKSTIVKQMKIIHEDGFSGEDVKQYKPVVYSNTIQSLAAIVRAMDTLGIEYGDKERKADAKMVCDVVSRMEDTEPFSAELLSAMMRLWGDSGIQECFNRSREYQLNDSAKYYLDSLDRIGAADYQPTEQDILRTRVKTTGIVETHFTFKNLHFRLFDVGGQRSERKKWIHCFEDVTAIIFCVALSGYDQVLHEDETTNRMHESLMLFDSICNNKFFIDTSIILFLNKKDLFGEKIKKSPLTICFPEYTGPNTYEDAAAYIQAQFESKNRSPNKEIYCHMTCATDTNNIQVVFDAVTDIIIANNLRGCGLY
GALR2 agonist: GALR2 (human) receptor agonism | GALR2-expressing cells, agonist activation read-out | 140,000 compounds, 0.48% hits | activation, %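 (tested at 5 µM)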 | AID 803;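 active means above mean plus 3 SD of all compounds, about 5% in these data, not always enough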;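 further: 0% = vehicle buffer wells and 100% = reference agonist at full effect; tested in CHO reporter cells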
Target sequence (O43603 whole entry, looked up): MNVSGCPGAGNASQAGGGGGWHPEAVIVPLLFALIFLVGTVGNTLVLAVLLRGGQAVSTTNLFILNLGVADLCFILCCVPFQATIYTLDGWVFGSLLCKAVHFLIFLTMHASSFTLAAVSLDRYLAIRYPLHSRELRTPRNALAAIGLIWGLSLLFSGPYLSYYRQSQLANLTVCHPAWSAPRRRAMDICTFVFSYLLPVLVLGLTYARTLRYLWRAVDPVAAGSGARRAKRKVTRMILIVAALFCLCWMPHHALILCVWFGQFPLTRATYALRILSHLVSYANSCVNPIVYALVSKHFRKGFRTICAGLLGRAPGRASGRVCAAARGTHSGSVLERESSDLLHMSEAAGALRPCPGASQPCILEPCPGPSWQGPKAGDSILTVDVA
PKD1 inh: blocks activity of human protein kinase D1; AID 797; 200,000 compounds, 0.056% hits; PKD1 kinase fluorescence polarization assay; inhibition, %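 (about 10 µM by stock and volumes)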;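 active means inhibition of 50% or more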;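 further: controls were vehicle for no effect and a reference inhibitor for full effect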
INS promoter inh: TRM-6 insulin promoter activity inhibition; inhibition, % at 2 µM; 130,000 compounds, 0.9% hits; AID 1273; TRM-6 cells (human fetal islet line), insulin promoter-eGFP reporter, imaging; reporter expression induced with tamoxifen;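 active means inhibition above the mean plus 3 SD, with well images judged a real hit on visual review, cut at about 60% in these data, passing the limit was not always enough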
HSV replic up: increases HSV replication in cells. HSV replication augmentation in cells, fold increase. maximum fold increase. 220,000 compounds, 0.005% hits. AID 1956;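 active means peak rise of 1.5-fold or more in the series; tested in PC3 cells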;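 further: first round at 10 µM; read as green reporter fluorescence; hits show the peak of a series up to 25 µM; 1 = signal of infected wells without compound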
INS promoter inh cell count: also measured in INS promoter inh; calls as there; normalized cell count, %; measured here: cell count, toxicity; reference of the scale not given here;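 cells exposed to compound for 48 h; stained nuclei by imaging scaled within each plate; lower means fewer cells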
HSV replic up primary fold: recorded beside HSV replic up, whose call it bears; fold increase; compound at 10 µM; measured here: primary screen fold increase 10 uM; tested in PC3 cells;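 GFP signal in the first replicate; 1 = infected wells without compound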
Numbers without * were called inactive; i = inactive; · = no result given.

SMILES | RGS16-Gao HTS | GALR2 agonist | PKD1 inh | INS promoter inh | INS promoter inh cell count | HSV replic up | HSV replic up primary fold
NC(=S)N/N=C1\CC(n2nnnc2-c2ccccc2)C2COC1O2 (configuration not stated) | 98 | · | · | · | · | i | 0.95
C=CCn1c(SCC(=O)c2cc(C)n(Cc3cccs3)c2C)nnc1-c1ccncc1 | 96 | -0.3 | -11 | · | · | i | 1
CCCn1nc(C(=O)NCc2ccc3c(c2)OCO3)c2ccccc2c1=O | 61 | · | -3 | -67 | 100 | i | 0.97
CC(c1ccccc1)N(CCC(c1ccccc1)C1CCOC(C)(C)C1)C(=O)c1ccco1 (configuration not stated) | 97 | -1.2 | 8 | · | · | i | 1.2
CC1CCN(c2ccc(C(=O)O)cc2N)CC1 | 101 | -1.6 | 6 | 45 | 120 | i | 1.1
CCOC(=O)/C=C1\SCC(=O)N1CC(=O)NC1CCCCC1 | 121 | -2.1 | 1 | -23 | 75 | i | 0.75
CCOc1ccccc1-n1nnnc1SCC(=O)OC | 104 | · | 1 | 50 | 188 | i | 1
CC1CN(/C=C/C(=O)C(F)(F)F)CC(C)O1 (configuration not stated) | 102 | · | 4 | · | · | i | 0.93
C=CCNC(=S)NC(=O)c1oc2ccccc2c1C | 103 | · | 6 | · | · | i | 1
COc1cc(Nc2nc(SCC#N)nc3ccccc23)cc(OC)c1OC | 104 | 0.5 | 1 | 29 | 131 | i | 0.9
O=C1CCC(C(=O)NCCN2C(=O)S/C(=C\c3cccnc3)C2=O)=NN1 | 95 | · | -1 | · | · | i | 0.93
CCn1cnc2sc(C(=O)Nc3ccccc3OC)c(C)c2c1=O | 93 | · | · | · | · | i | 0.9
CCCCSC(=S)N(C)C1CCS(=O)(=O)C1 (configuration not stated) | 102 | -3.9 | 9 | -17 | 153 | i | 1
CCCCOc1ncnc2c1[nH]c1ccc(OCC)cc12 | 100 | -3.6 | -16 | 6 | 29 | i | 0.88
O=C(CN1CCCCC1)Nc1ccccc1Cl | 108 | · | 2 | · | · | i | 1.1
O=C(ON=C1CCN(S(=O)(=O)c2ccccc2)CC1)c1ccc(F)cc1 | 165 | -1.8 | -4 | 54 | 73 | i | 0.88
CC(Sc1nc2ccccc2[nH]1)C(=O)Nc1ccccc1F (configuration not stated) | 104 | · | 0 | -8 | 122 | i | 0.96
CCOC(=O)/C(=N\Nc1cc(Cl)ccc1Cl)N1CCN(C)CC1 | 110 | -0.9 | 0 | -16 | 121 | i | 0.85
CCCN1C(=O)C2(C(C(=O)c3ccc(C)o3)=C(O)C(=O)N2CCCN2CCOCC2)c2ccccc21 (configuration not stated) | 100 | -1.6 | -6 | 42 | 91 | i | 1
CCOC(=O)Cc1csc(NC(=O)CSc2nnc(C(C)C)n2C)n1 | 101 | -1.6 | -13 | 31 | 122 | i | 0.95
CC(C)(C)NS(=O)(=O)c1ccc(NS(C)(=O)=O)cc1 | 104 | 0.5 | 5 | · | · | i | 0.92
CC(C)Cn1c(=S)[nH]c2cc(C(=O)O)ccc2c1=O | 98 | · | · | · | · | i | 0.95
CCc1ccccc1NC(=O)C(Cc1cccc(OC)c1OC)c1nn[nH]n1 (configuration not stated) | 105 | -1.5 | 5 | · | · | i | 0.99
CCc1ccc(OCCCC(=O)Nc2nccs2)cc1 | 101 | · | 4 | · | · | i | 1
Cc1cc(C)nc(NS(=O)(=O)c2ccc(NC(=O)COc3ccccc3)cc2)n1 | 109 | -0.8 | -14 | 3 | 95 | i | 0.93
CC(=O)Nc1ccc(S(=O)(=O)N(CCO)Cc2ccccc2)cc1 | 96 | -0.8 | -5 | 29 | 81 | i | 0.71
O=C(Nc1ccccc1)Nc1ccc(C(F)(F)F)cn1 | 102 | · | · | · | · | i | 1.3
CN(c1ccccc1)S(=O)(=O)c1ccc(C(=O)NCc2ccccn2)cc1 | 102 | · | -1 | · | · | i | 0.95
CC(=O)Nc1ccc(NC(=O)CSc2ccc(-c3ccc4c(c3)OCO4)nn2)cc1 | 30 | -1.3 | -3 | 19 | 163 | i | 0.98
CCc1c(C(=O)NNC(=S)NCC(C)C)csc1C | 110 | -1.5 | 11 | -57 | 89 | i | 0.85
Cc1nc(NCc2ccccc2)c(C(N)=O)c2c1COC(C)(C)C2 | 99 | -1.6 | -12 | -13 | 86 | i | 0.93
CSc1ccc(Cl)c(C(=O)Nc2ccc(N3CCOCC3)cc2)c1 | 111 | · | -9 | · | · | i | 0.99
CC(C)(CSc1ccccn1)NS(=O)(=O)c1ccc(Cl)cc1 | 97 | -1.8 | -5 | · | · | i | 0.98
CC(C)C(=O)Nc1ccc(-c2nc3ccccc3c(=O)o2)cc1 | 102 | · | -2 | · | · | i | 0.89
COc1ccc(C(CC(=O)Nc2ccc(F)cc2)c2ccccc2)cc1 (configuration not stated) | 101 | -1.1 | 10 | -30 | 136 | i | 0.9
O=C(NN=C1CCCC1)c1sc2ccccc2c1Cl | 100 | · | -2 | · | · | i | 1
Cc1cc(C)cc(NC(=O)C(=O)NCc2ccccn2)c1 | 101 | -0.8 | -8 | · | · | i | 0.96
COc1cccc2cc(C(=O)NCc3ccccn3)c(=O)oc12 | 101 | -1.1 | -3 | -15 | 85 | i | 0.97
CCCn1c(CC)nc([N+](=O)[O-])c1Sc1ccc(F)cc1 | 98 | -0.8 | 1 | · | · | i | 0.84
Cc1ccc(NCc2nnc(SCC(=O)N(Cc3ccccc3)C(C)(C)C)o2)c(C)c1 | 79 | -2.2 | -2 | -23 | 59 | i | 0.86
CC1CC(=O)N(c2ccc(Br)cc2)C(=O)C1 | 101 | · | · | · | · | i | 0.88
CC(C)c1nnc(NC(=O)CSc2nnc(-c3ccco3)o2)s1 | 109 | · | -4 | · | · | i | 0.97
COC(=O)c1c(NC(=O)C2CCCO2)sc2c1CCC2 (configuration not stated) | 100 | -1.2 | 12 | 0 | 133 | i | 0.92
O=C(Nc1ccc(S(=O)(=O)N2CCc3ccccc3C2)cc1)c1ccccc1 | 105 | -2.9 | -4 | -407 | 116 | i | 0.81
COc1cc2c(cc1OC)C(C)N(C(=O)c1cc3c(s1)-c1ccccc1OC3)CC2 (configuration not stated) | 107 | -0.9 | -17 | 17 | 84 | · | ·
COc1ccc(CNC(=O)CSc2n[nH]c(C)c2[N+](=O)[O-])cc1 | 104 | -0.7 | -2 | 19 | 134 | i | 0.9
CC(=O)Nc1nnc(SCC(=O)NCC2CCCO2)s1 (configuration not stated) | 99 | · | · | · | · | i | 0.82
CN(Cc1ccccc1)Cc1nc2scc(-c3ccccc3)c2c(=O)[nH]1 | 93 | · | 10 | · | · | i | 0.97
O=C(Nc1ccccc1)Nc1ccc(-n2ccc(C(F)(F)F)n2)cc1 | 100 | · | · | · | · | i | 0.82
CC(=O)c1ccc(OCCCC(=O)Nc2cc(S(=O)(=O)N(C)C)ccc2C)cc1 | 100 | -2.2 | -1 | 19 | 102 | i | 1
Next part:
SMILES | RGS16-Gao HTS | GALR2 agonist | PKD1 inh | INS promoter inh | INS promoter inh cell count | HSV replic up | HSV replic up primary fold
O=S(=O)(c1ccc(Cl)cc1)c1cnc2ccccc2n1 | 96 | · | 6 | 64 | 138 | i | 0.62
Cc1c(Cl)c([N+](=O)[O-])nn1CC(=O)NCc1cccs1 | 108 | -0.8 | -6 | -24 | 117 | i | 0.93
Cc1cccc([C@@H]2C[C@H]3CN(Cc4cccc(Cl)c4)C(=O)[C@]34CCCN24)n1 | 111 | · | -2 | · | · | i | 1.1
Cn1c2c(c(=O)n(C)c1=O)C(NS(=O)(=O)c1ccccc1)(C(F)(F)F)C(=O)N2 (configuration not stated) | 98 | -1.3 | 1 | · | · | i | 0.99
Cc1ccc(NS(=O)(=O)c2ccc(NC(=O)C3CCCO3)cc2)cc1 (configuration not stated) | 96 | -3.0 | -4 | 54 | 81 | i | 1
Cc1nc(-c2ccc(C(=O)Nc3ccccc3F)cc2)cs1 | 93 | · | -2 | 0 | 70 | i | 0.96
CCCCCC(=O)N1CC2(CC(c3cccc(NC(=O)c4ccccc4)c3)=NO2)C[C@@H]1C(N)=O (some centres not stated) | 100 | -3.0 | 5 | · | · | i | 0.85
CCOC(=O)c1cnn(-c2ccccc2)c1N | 102 | 1.1 | -2 | 28 | 166 | i | 0.93
Cc1nc(SCC(=O)NC(C)c2ccccc2)c2oc3ccccc3c2n1 (configuration not stated) | 97 | -0.3 | -6 | 40 | 76 | i | 1.1
C[C@@H]1CN(C(=O)c2nc3ccc(Cl)cn3c2CN2CCc3sccc3C2)C[C@H](C)O1 | 99 | · | -2 | -9 | 210 | i | 1

Random excerpt: 4 entries already listed
SMILES | RGS16-Gao HTS | GALR2 agonist | PKD1 inh | INS promoter inh | INS promoter inh cell count | HSV replic up | HSV replic up primary fold
CN(c1ccccc1)S(=O)(=O)c1ccc(C(=O)NCc2ccccn2)cc1 | 102 | · | -1 | · | · | i | 0.95
O=C(Nc1ccccc1)Nc1ccc(-n2ccc(C(F)(F)F)n2)cc1 | 100 | · | · | · | · | i | 0.82
Cc1cc(C)cc(NC(=O)C(=O)NCc2ccccn2)c1 | 101 | -0.8 | -8 | · | · | i | 0.96
O=C(Nc1ccccc1)Nc1ccc(C(F)(F)F)cn1 | 102 | · | · | · | · | i | 1.3

Whole records from above:
Cc1cccc([C@@H]2C[C@H]3CN(Cc4cccc(Cl)c4)C(=O)[C@]34CCCN24)n1 as listed: RGS16-Gao HTS = 111; GALR2 agonist = ·; PKD1 inh = -2; INS promoter inh = ·; INS promoter inh cell count = ·; HSV replic up = i; HSV replic up primary fold = 1.1
Cc1ccc(NS(=O)(=O)c2ccc(NC(=O)C3CCCO3)cc2)cc1 (configuration not stated) as listed: RGS16-Gao HTS = 96; GALR2 agonist = -3.0; PKD1 inh = -4; INS promoter inh = 54; INS promoter inh cell count = 81; HSV replic up = i; HSV replic up primary fold = 1
CCOC(=O)c1cnn(-c2ccccc2)c1N as listed: RGS16-Gao HTS = 102; GALR2 agonist = 1.1; PKD1 inh = -2; INS promoter inh = 28; INS promoter inh cell count = 166; HSV replic up = i; HSV replic up primary fold = 0.93

(cont.)
SMILES | RGS16-Gao HTS | GALR2 agonist | PKD1 inh | INS promoter inh | INS promoter inh cell count | HSV replic up | HSV replic up primary fold
CC(=O)c1ccc(N2CCN(C(=S)Nc3ccccc3F)CC2)cc1 | 122 | -1.1 | -2 | · | · | i | 1.1
CCC(=O)c1ccc(OCC(O)CN2C(=O)NC(C)(C)C2=O)cc1 (configuration not stated) | 104 | · | -7 | · | · | i | 1.1
Cc1cc(C)cc(NC(=O)C(OC(=O)c2cccs2)c2ccccc2)c1 (configuration not stated) | 106 | -1.6 | -2 | · | · | i | 0.95
CCN(CC)c1ccc(C(=S)N2CCN(c3ccccc3)CC2)cc1 | 102 | -0.8 | 5 | · | · | i | 0.91
Cc1ccc(N2CC(C(=O)NCc3ccc4c(c3)OCO4)CC2=O)cc1C (configuration not stated) | 95 | -0.5 | 0 | 22 | 106 | i | 0.86
COCc1cc(C)[nH]c(=O)c1C(=O)NC12CC3CC(CC(C3)C1)C2 | 104 | · | -7 | · | · | i | 0.92
CC(=O)C1=C(C)NC(SCC(N)=O)=C(C#N)C1CC(C)C (configuration not stated) | 100 | · | -1 | · | · | i | 1
Cc1cc(=O)c2ccccc2n1Cc1ccccc1 | 102 | · | -2 | · | · | i | 0.83
CCCCNC(=O)C1CC(=O)N(C2CCCC2)C1 (configuration not stated) | 103 | -0.3 | -4 | -15 | 102 | i | 0.97
O=C(CCc1ccccc1)Nc1ccccc1C(F)(F)F | 106 | · | 11 | 0 | 83 | i | 0.97
O=C(NC(=S)NCc1ccc(F)cc1)c1ccccc1 | 103 | -1.2 | -9 | -39 | 94 | i | 0.98
CCc1cc2c(=O)n(-c3ccc(C)cc3)cnc2s1 | 104 | 0.0 | -14 | 69 | 132 | i | 0.92
C/C(=N\NC(=O)c1nn(C)cc1Br)c1cccc(NC(=O)c2ccncc2)c1 | 101 | 0.3 | 0 | -75 | 164 | i | 0.78
CC(Oc1ccc(F)cc1)C(=O)Nc1ccc2ccccc2c1 (configuration not stated) | 102 | -1.7 | -2 | · | · | i | 0.95
Cc1cccc(Nc2nc(N)nc(CN3CCC(C)CC3)n2)c1C | 102 | -2.9 | -6 | 100* | 16* | i | 0.94
O=C1CC(N(CCc2ccccc2)C(=S)Nc2ccccc2)C(=O)N1c1ccccc1 (configuration not stated) | 100 | 0.0 | -11 | -37 | 101 | i | 0.78
COc1ccc(-c2cc(-c3ccc(F)cc3)nc(N3CCN(C)CC3)n2)cc1 | 101 | -0.9 | 1 | -100 | 116 | i | 0.78
Cc1ccc([N+](=O)[O-])cc1N=C(c1cccc(Br)c1)N1CCOCC1 | 97 | -1.6 | 5 | · | · | i | 0.94
CC(Sc1nc(-c2ccccc2)cc(C(F)(F)F)n1)C(=O)N1CCCCC1 (configuration not stated) | 94 | -0.6 | 3 | 42 | 165 | i | 0.93
COCCNC(=O)CCc1ccc(S(=O)(=O)Nc2ccc(C)cc2)cc1 | 98 | -1.7 | -3 | -21 | 41 | i | 0.94
